# Screening results (PubChem BioAssay)
# Arbovirus inh – antivirals against arbovirus infection, primary screen, cell-based, full library, 10K replicate subset; arbovirus infection cell-based antiviral screen; inhibition, % at 10 µM; actives 0.37% (n = 200,000); AID 1251, 2008;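 active = inhibition from about 30%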;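 also: bluetongue infection of BSR cells; cell survival read as ATP light after 72 h; 0% = infected wells without compound and 100% = uninfected wells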
# Mtb growth – M. tuberculosis H37Rv growth inhibitors, H37Rv strain (AID 1626). M. tuberculosis H37Rv growth inhibition; higher % means a stronger effect. actives 0.95% (n = 220,000). one-dose inhibition, % at 10 µM; IC50 in µM for titrated hits;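 active = confirmed in a dose series; inconclusive = inhibition above 80% but not taken into the dose series; inactive = below 80% or under 30% at every dose of the series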;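 also: bacteria incubated seven days before Alamar blue readout; 0% = bacteria only wells and 100% = bacteria with antibiotic wells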
# RecA intein inh – Mtb RecA intein splicing inhibitors, primary screen, biochemical, fluorescence, HTS | Protein RecA (Mycobacterium tuberculosis (strain ATCC 25618 / H37Rv)), P9WHJ3 | cell-free RecA intein splicing | inhibition, %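 (about 9 µM by stock and volumes)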 | actives 0.75% (n = 290,000) | AID 2221, 2009; in the data active = inhibition above about 30%; inconclusive = no clear call, values can overlap the other calls;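 also: 0% = vehicle wells and 100% = reference inhibitor control wells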
# Target sequence (P9WHJ3 whole entry, looked up): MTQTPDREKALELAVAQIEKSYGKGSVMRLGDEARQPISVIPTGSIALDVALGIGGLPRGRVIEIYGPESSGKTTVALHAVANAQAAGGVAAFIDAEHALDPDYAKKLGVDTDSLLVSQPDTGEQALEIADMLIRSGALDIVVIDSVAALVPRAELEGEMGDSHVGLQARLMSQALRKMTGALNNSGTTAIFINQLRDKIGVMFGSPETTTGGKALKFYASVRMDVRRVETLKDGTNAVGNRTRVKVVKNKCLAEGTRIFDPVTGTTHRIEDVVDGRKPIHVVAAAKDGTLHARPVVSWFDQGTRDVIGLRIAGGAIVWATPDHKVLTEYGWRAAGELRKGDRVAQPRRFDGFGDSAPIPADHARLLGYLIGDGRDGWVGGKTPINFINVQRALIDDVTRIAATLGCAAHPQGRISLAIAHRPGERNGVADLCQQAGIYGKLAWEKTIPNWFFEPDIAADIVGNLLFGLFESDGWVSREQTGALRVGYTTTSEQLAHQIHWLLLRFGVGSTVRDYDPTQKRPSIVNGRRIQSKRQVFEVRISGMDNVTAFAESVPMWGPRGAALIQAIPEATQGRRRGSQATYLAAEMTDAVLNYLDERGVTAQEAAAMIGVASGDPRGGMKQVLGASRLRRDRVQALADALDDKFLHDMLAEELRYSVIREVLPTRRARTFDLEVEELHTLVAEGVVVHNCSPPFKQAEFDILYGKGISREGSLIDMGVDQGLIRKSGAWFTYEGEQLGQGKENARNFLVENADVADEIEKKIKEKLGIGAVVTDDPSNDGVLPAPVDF
# Mtb betalactam – beta-lactam sensitization of Mtb H37Rv, H37Rv | M. tuberculosis H37Rv growth with meropenem, percent inhibition; hits of this screen are not shown here | inhibition, % at 25 µM | actives 0.27% (n = 330,000);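 active = about 74% or more and at least 40 points above the plate without the antibiotic, then above 30% in a dose series; inconclusive = first-round hits that could not be retested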;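 also: growth measured after seven days incubation then overnight dye step; 0% = bacteria only wells and 100% = bacteria with antibiotic; twin plates without the antibiotic show which effects depend on it; some results filed as inactive read as strong as hits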
# YopH inh – YopH tyrosine phosphatase inhibitors, primary screen, biochemical, fluorescence Ex485/Em525. actives 0.16% (n = 140,000). inhibition, %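 (about 10 µM by stock and volumes)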. YopH tyrosine phosphatase [Yersinia enterocolitica];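 active = inhibition of 50% or more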;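 also: controls were vehicle for no effect and minimum signal wells for full effect; inactives centre near -20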
# Arbovirus inh repeat – second read-out of Arbovirus inh, no call of its own (marks repeat the call); inhibition, %; measured here: 10K subset replicate screen; many hits read low in the repeat;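 first of two repeat runs on a subset; 0% = infected and 100% = uninfected wells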
# The depositor's hits bear a star; u = inconclusive; x = no result given.
SMILES,Arbovirus inh,Mtb growth,RecA intein inh,Mtb betalactam,YopH inh,others
O=C(Cc1ccccc1)N1CCN(CC2CC=CCC2)CC1 (stereo not drawn),2,x,-0.3,7,33,
CCOc1ccc(NS(=O)(=O)c2ccc(OCC)c3ncccc23)cc1,6,-1%,1.5,u,-17,
Cc1ccc(OCCn2cnc3sc(C(N)=O)c(C)c3c2=O)cc1,-4,11%,1.5,1,x,
Cc1c(C(=O)N2CCOCC2)oc2ccc(S(=O)(=O)N3CCCC3)cc12,5,-9%,0.8,-1,-24,
CCCCSc1ccc2nc(-c3ccc(C#N)cc3)cn2c1,-7,36%,-3.2,99,-25,
CNC(=O)C1=C(C)Nc2nc3ccccc3n2C1c1cccc(OC)c1 (stereo not drawn),6,-2%,2.4,-1,-39,
O=C(NNc1ccc([N+](=O)[O-])cc1)C12CC3CC(CC(C3)C1)C2,3,u,0.4,98,-21,
O=C1CCCC(O)=C1C=NCc1ccccc1,0,7%,1.3,-1,x,
O=c1oc2ccccc2n1CCCOc1ccccc1,-3,11%,0.6,-3,1,Arbovirus inh repeat=2
CCN(CC)CCCN1C(=O)C(O)=C(C(=O)c2ccco2)C1c1ccc(C)o1 (stereo not drawn),3,3%,3.2,-3,5,
Cc1ccc(SCc2cc(=O)n(C)[nH]2)cc1,-5,-2%,95*,0,x,
CN(CC(=O)Nc1ccccc1Br)C(=O)CCSc1ccc(F)cc1,x,x,-1.5,-2,x,
Cc1nnc(N2C(=O)c3ccc(Br)cc3C2=O)s1,x,x,-6.5,6,x,
COC(=O)c1ccccc1OCCOCCOc1cccc2ccc(C)nc12,3,62%,1.5,-2,x,
O=C(NCCN1CCOCC1)c1ccc(Cl)cc1[N+](=O)[O-],1,-10%,-8.7,1,-20,
CCC1CCCCN1CCNS(=O)(=O)c1ccc2c(c1)CCN2C(C)=O (stereo not drawn),-2,1%,-1.7,-4,6,
CCc1ccccc1NC(=O)CN(C)C(=O)CSc1nnc(Nc2ccc(C)cc2)s1,5,4%,-0.1,-1,19,
COc1ccc(S(N)(=O)=O)cc1C(=O)NCC(C)(C)N1CCOCC1,x,x,0.4,2,x,
Cc1ccc(C2c3c(oc4ccc(Cl)cc4c3=O)C(=O)N2CCCN2CCOCC2)o1 (stereo not drawn),4,62%,36*,-2,-28,
NS(=O)(=O)c1cnccc1Oc1cccc(Cl)c1,x,x,-1.2,-1,x,

# 5 entries picked at random from the list so far:
SMILES,Arbovirus inh,Mtb growth,RecA intein inh,Mtb betalactam,YopH inh,others
Cc1ccc(C2c3c(oc4ccc(Cl)cc4c3=O)C(=O)N2CCCN2CCOCC2)o1 (stereo not drawn),4,62%,36*,-2,-28,
COc1ccc(S(N)(=O)=O)cc1C(=O)NCC(C)(C)N1CCOCC1,x,x,0.4,2,x,
CCC1CCCCN1CCNS(=O)(=O)c1ccc2c(c1)CCN2C(C)=O (stereo not drawn),-2,1%,-1.7,-4,6,
COC(=O)c1ccccc1OCCOCCOc1cccc2ccc(C)nc12,3,62%,1.5,-2,x,
O=c1oc2ccccc2n1CCCOc1ccccc1,-3,11%,0.6,-3,1,Arbovirus inh repeat=2

# Later entries
SMILES,Arbovirus inh,Mtb growth,RecA intein inh,Mtb betalactam,YopH inh,others
O=C(c1ccccc1)c1coc2c1C(=O)c1ccccc1C2=O,9,6%,17,1,x,
O=C1C2CC=C(Cl)CC2C(=O)N1CCCCCCN1C(=O)C2CC=C(Cl)CC2C1=O (stereo not drawn),0,9%,-6.1,0,-6,
COCCn1c(C)cc(C(=O)COC(=O)c2ccc(-n3nc(C)cc3C)cc2)c1C,9,-2%,-0.3,2,-22,
CCCCOC(=O)c1ccc(NC(=O)c2c(Cl)ccc(Cl)c2OC)cc1,-16,62%,6.7,90,-8,
COc1cc(C(=O)NNC(=S)NCc2ccco2)cc(OC)c1OC,-6,-6%,4.8,-1,x,
COCCCn1c(=O)c2ccccc2n(CC(=O)Nc2ccc3c(c2)OCCO3)c1=O,x,x,-3.3,0,x,
CN(C)CCNC(=O)c1ccccc1,-4,-19%,-0.2,-4,-11,
Cc1ccc(C(=O)NC(NC(=O)c2ccc(C)cc2)C(Cl)Cl)cc1,-22,1%,-1.9,0,-11,
O=C(CSc1nnnn1-c1cccc2c1CCCC2)N1CCCC1,1,-4%,-2.1,-5,-7,
Cc1ccccc1C(=O)NN1CC(C(=O)OCc2ccc(Cl)c(Cl)c2)CC1=O (stereo not drawn),x,x,2.7,33,x,

# Among those listed so far, 5 contain an aryl thioether with sulfur outside any ring.
SMILES,Arbovirus inh,Mtb growth,RecA intein inh,Mtb betalactam,YopH inh,others
CCCCSc1ccc2nc(-c3ccc(C#N)cc3)cn2c1,-7,36%,-3.2,99,-25,
Cc1ccc(SCc2cc(=O)n(C)[nH]2)cc1,-5,-2%,95*,0,x,
CN(CC(=O)Nc1ccccc1Br)C(=O)CCSc1ccc(F)cc1,x,x,-1.5,-2,x,
CCc1ccccc1NC(=O)CN(C)C(=O)CSc1nnc(Nc2ccc(C)cc2)s1,5,4%,-0.1,-1,19,
O=C(CSc1nnnn1-c1cccc2c1CCCC2)N1CCCC1,1,-4%,-2.1,-5,-7,

# (listing goes on)
SMILES,Arbovirus inh,Mtb growth,RecA intein inh,Mtb betalactam,YopH inh,others
Cc1cc(C)n(-c2ccc(C(=O)Nc3ccc(N4CCOCC4)cc3)cc2)n1,-1,-6%,-1.0,-9,-12,
Cc1cc2nccc(-c3ccccn3)n2n1,-1,-1%,-1.5,-1,x,
COc1ccc(C(=O)NC2CCCc3c2cnn3-c2cccc(C)c2C)c(OC)n1 (stereo not drawn),x,x,18,-3,x,
CCn1ccnc1CNC(=O)CC1C(=O)NCCN1Cc1ccc(F)cc1Cl (stereo not drawn),x,x,0.5,0,x,
COc1ccccc1N1CCN(S(=O)(=O)Cc2ccccc2Cl)CC1,-9,-7%,3.2,-3,38,
O=C(c1ccc([N+](=O)[O-])cc1)c1cc2ccc(O)cc2oc1=O,x,x,-3.6,3,x,
CC(=O)Cn1cnc2c(cnn2-c2ccccc2)c1=O,x,x,-4.9,-6,x,
CN(CCOc1ccccc1)C(=O)C1CCN(C(=O)c2ccc(Cl)cc2)CC1,x,x,1.2,1,x,
CCOc1ccc(C(=O)c2ccc(OCC)c(N)c2)cc1N,-21,-3%,-2.0,-7,-16,
O=C(Nc1ccc(N=Nc2ccccc2)cc1)c1cccc(Cl)c1,-1,-8%,-0.5,4,-22,
O=C(CN(C(=O)CNC(=O)c1ccco1)c1ccc(F)cc1)NC1CCCC1,x,x,1.2,2,x,
CCCCn1c(SCC(=O)c2ccc(O)cc2O)nc2cc(S(N)(=O)=O)ccc21,x,x,-1.2,2,x,
S=C(c1ccc(-c2cccc(Cl)c2)o1)N1CCOCC1,4,-7%,8.4,1,-22,
COc1cc(C)c(S(=O)(=O)NCc2cccs2)cc1C,3,x,-3.9,-2,-5,
COc1cc(CNC(=O)c2ccc(Cn3nc(C)c(Cl)c3C)o2)cc(OC)c1,-31,-5%,4.3,-1,12,
CC(=O)Nc1ccc(NC(=O)CCc2nc3ccccc3c(=O)[nH]2)cc1,0,3%,-1.5,-3,x,
CCCC(NS(=O)(=O)c1ccc(OC)cc1)C(=O)O (stereo not drawn),-2,0%,0.5,-1,-44,Arbovirus inh repeat=3
O=C1CSC(c2cccc(F)c2)N1c1ccc(O)cc1 (stereo not drawn),1,14%,0.2,-1,-28,
CCCCn1nc(C(=O)Nc2cc(S(=O)(=O)N(C)C)ccc2C)c2ccccc2c1=O,x,-4%,0.8,0,x,
O=C1c2ccsc2SCCN1Cc1c(F)cccc1Cl,x,x,3.2,-2,x,
CCN1CCc2c(C#N)c(N3CCCCC3)nc(NCc3ccccc3)c2C1,3,6%,-16,43,-5,
COC(=O)C1=C(C(=O)OC)[C@@H]2N(C)c3ccc(OC)cc3[C@@]23C[C@@H](C(=O)OC)N(C(=O)CC(C)C)C3=N1,x,-3%,4.1,-2,x,
Cc1cc(C)cc(-n2nnc(C(=O)NCc3ccc(Cl)cc3)c2N)c1,5,-3%,1.7,-3,-52,
CC(C)c1cccc(C(C)C)c1OC(=O)NC(=O)c1c(F)cccc1F,x,x,5.2,-18,x,
COc1ccc(CC(=O)Nc2ccc(N3CCCCC3)cc2)cc1,-2,4%,x,-9,x,
COc1cc(NC(=O)COc2ccc(Br)cc2)ccc1NC(=O)C(C)C,-4,7%,1.7,1,x,
Cc1ccc(SC(C)C(=O)Nc2ccccc2-c2ccccc2)cc1 (stereo not drawn),-11,-2%,13,u,-16,
O=C(CSCc1ccc(F)cc1)N1CCN(c2ccccc2)CC1,5,-3%,-11,33,-123,
Cc1ccc2c(c1)/C(=C/c1ccco1)C(=O)N2,20,3%,-1.7,6,x,
Cc1cccc(OCC(=O)Nc2ccc3c(c2)nc(CCN2CCN(c4ccccn4)CC2)n3C)c1,x,x,3.2,58,x,

# The list goes on; it opens with the 2 that closed the last part.
SMILES,Arbovirus inh,Mtb growth,RecA intein inh,Mtb betalactam,YopH inh,others
Cc1ccc2c(c1)/C(=C/c1ccco1)C(=O)N2,20,3%,-1.7,6,x,
Cc1cccc(OCC(=O)Nc2ccc3c(c2)nc(CCN2CCN(c4ccccn4)CC2)n3C)c1,x,x,3.2,58,x,
CCCCn1c(=O)[nH]c(=O)c2c1nc(-c1ccccc1F)n2Cc1ccccc1OC,-12,1%,12,2,x,
O=C(CSc1nc2cc(Cl)c(Cl)cc2[nH]1)c1ccc2c(c1)OCO2,x,-6%,5.3,-5,x,
O=C(c1cc2ccccc2o1)N(C1CC1)C1(C(=O)Nc2ccccc2)CCCC1,-1,11%,x,-2,x,
Cc1nc(CCNC(=O)CC2C(=O)NCCN2Cc2ccc(F)cc2)sc1C (stereo not drawn),1,4%,-0.2,-1,x,
CC(C)Sc1nc2c(cnn2-c2ccc(F)cc2)c(=O)[nH]1,2,4%,-5.6,-2,-54,Arbovirus inh repeat=-10
COC(=O)Cc1c(C)nc(SCc2ccccc2)[nH]c1=O,x,x,-1.4,9,x,
COc1ccc(-n2c(=S)[nH]c3cc(C(=O)N4CCN(c5ccccc5)CC4)ccc3c2=O)c(OC)c1,x,x,-1.0,-3,x,
COc1ccc(C(=O)Nc2c3c(nn2-c2ccc(Cl)cc2)CS(=O)(=O)C3)cc1,x,x,1.1,1,x,
COc1cc(OC)cc(C(=O)N[C@H](C(=O)Nc2nnc(C3CC3)s2)C(C)C)c1,11,-1%,-3.1,-8,x,
CCOc1c(S(=O)(=O)NC2CC(C)(C)NC(C)(C)C2)ccc(Cl)c1Cl,-12,3%,0.4,-5,x,
Cc1cccc(Nc2nc(NCCCN3CCOCC3)nc(N)c2[N+](=O)[O-])c1,12,2%,-1.5,2,-19,
O=S(=O)(c1ccc(F)cc1)N1CCN(C(=S)NCCc2ccccc2)CC1,x,x,0.4,2,x,
CCOC(=O)COc1ccc(N)cc1CC(NC(C)=O)(C(=O)OCC)C(=O)OCC,1,-2%,0.6,-5,-7,
CC(C)c1ccc(OC(=O)c2cccc(S(=O)(=O)N3CCN(C)CC3)c2)cc1,x,x,2.2,5,x,
COc1cc(-n2c(=O)c3ccccc3n(CC(=O)c3ccccc3)c2=O)cc(OC)c1OC,-5,4%,-1.5,-2,x,
Cc1ccc(OC(=O)c2cc3ccccc3o2)cc1,8,30%,5.4,99,-16,

# An excerpt. The share of hits here may be higher or lower than overall.
